# GIV Gai3 FP: inhibitors of GIV GBA-motif binding to rat Galpha-i3. Galpha-i3/FITC-GIV peptide fluorescence polarization, 90 min; stronger effect = lower value; scaled: aluminum fluoride 0%, vehicle 100%. percent of control (FP), % (concentration not given with the values). 210,000 compounds, 0.42% hits. AID 1224905;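 active = replicate mean at 85% of control or lower, very high polarization wells dropped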;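 note: wells of about 15 µL received 100 nL stock; the first replicate is given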
# Target sequence (P08753 whole entry, looked up): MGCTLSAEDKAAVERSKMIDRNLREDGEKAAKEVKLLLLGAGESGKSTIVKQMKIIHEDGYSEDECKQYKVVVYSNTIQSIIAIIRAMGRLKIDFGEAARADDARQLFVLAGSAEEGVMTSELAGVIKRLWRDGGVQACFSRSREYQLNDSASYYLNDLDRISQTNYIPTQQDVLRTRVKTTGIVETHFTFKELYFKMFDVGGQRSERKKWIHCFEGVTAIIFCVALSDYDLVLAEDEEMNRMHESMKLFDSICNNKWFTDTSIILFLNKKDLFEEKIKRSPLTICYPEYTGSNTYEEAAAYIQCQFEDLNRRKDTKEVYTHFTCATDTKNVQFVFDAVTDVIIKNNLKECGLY
# Starred values were filed as active, the others as inactive. Not all compounds are listed. The share of hits here may be higher or lower than overall.
# Preview (six entries):
compound | GIV Gai3 FP
Cc1ccc(C(=O)COC(=O)C(Cc2c[nH]c3ccccc23)NC(=O)c2ccc(Cl)cc2)cc1 (centres undefined) | 103
Cc1ccc(-c2nn(-c3cc([N+](=O)[O-])ccc3N3CCCC3)c(=O)c3ccccc23)cc1C | 102
Cc1ccc(-c2nccc(Oc3ccc(C(=O)N(C)Cc4ccccc4)cc3)n2)cc1 | 103
Cn1c(=O)c2c(nc3n(-c4ccc5c(c4)OCO5)c(-c4ccccc4)cn23)n(C)c1=O | 104
Cc1[nH]c(-c2nnc(C3CCC3)o2)c(C)c1S(=O)(=O)N1CCOCC1 | 107
Cc1cc(C)c2c(c1)CC(C)(C)c1nc3ccccc3nc1-2 | 102

# All compounds of this part, repeating the preview:
compound | GIV Gai3 FP
Cc1ccc(C(=O)COC(=O)C(Cc2c[nH]c3ccccc23)NC(=O)c2ccc(Cl)cc2)cc1 (centres undefined) | 103
Cc1ccc(-c2nn(-c3cc([N+](=O)[O-])ccc3N3CCCC3)c(=O)c3ccccc23)cc1C | 102
Cc1ccc(-c2nccc(Oc3ccc(C(=O)N(C)Cc4ccccc4)cc3)n2)cc1 | 103
Cn1c(=O)c2c(nc3n(-c4ccc5c(c4)OCO5)c(-c4ccccc4)cn23)n(C)c1=O | 104
Cc1[nH]c(-c2nnc(C3CCC3)o2)c(C)c1S(=O)(=O)N1CCOCC1 | 107
Cc1cc(C)c2c(c1)CC(C)(C)c1nc3ccccc3nc1-2 | 102
COc1cc(C2Nc3ccc4ccccc4c3C3=C2C(=O)CC(C)(C)C3)c(Br)cc1O (centres undefined) | 110
FC(F)(F)c1cccc(-n2cc(-c3ccccc3)c3c(NCC4CCCO4)ncnc32)c1 (centres undefined) | 105

# New compounds follow
compound | GIV Gai3 FP
O=C1CC(c2cccc(Br)c2)c2cnn(-c3nc4ccccc4s3)c2N1 (centres undefined) | 102
CCOC(=O)c1cc(-c2ccccc2)sc1NC(=O)c1ccc(C)cc1 | 127
CC1(C)OCC([C@H]2O[C@@H]3OC(C)(C)OC3C2OC(=O)Nc2ccc(Cl)c(Cl)c2)O1 (some centres undefined) | 102
COc1ccc(-n2ccc(=O)c(-c3nc(-c4ccccc4OC)no3)n2)cc1 | 102
COc1ccc(/C=C2\CCCC3=C2N2c4ccccc4OC24/C(=C/c2ccc(OC)cc2)CCCC4C3)cc1 (centres undefined) | 110
COC(=O)c1ccc(N2CCN(C)CC2)c(NC(=O)c2ccc(OC)c(OC)c2)c1 | 107
Nc1nnc(SCC(=O)Nc2nnc(SCC(=O)Nc3ccc(Cl)c(Cl)c3)s2)s1 | 105
Cc1ccc(Cl)cc1NS(=O)(=O)c1ccc2onc(C(=O)N3CCCC3)c2c1 | 104

# 3 of the entries above in order of the GIV Gai3 FP value, low to high:
compound | GIV Gai3 FP
O=C1CC(c2cccc(Br)c2)c2cnn(-c3nc4ccccc4s3)c2N1 (centres undefined) | 102
COC(=O)c1ccc(N2CCN(C)CC2)c(NC(=O)c2ccc(OC)c(OC)c2)c1 | 107
CCOC(=O)c1cc(-c2ccccc2)sc1NC(=O)c1ccc(C)cc1 | 127

# Further compounds follow:
compound | GIV Gai3 FP
CCCCCn1c(C)c(CC(Cl)(Cl)Cl)c2c1CC(C)(C)CC2=O | 102
O=C1C2=C(C(c3ccccc3)=NCCN2)C(c2ccc(Cl)cc2Cl)N1c1ccccc1 (centres undefined) | 99
O=C(Nc1ccc(Cl)cc1)Nc1ccc(-c2nnc(-c3ccccc3)o2)cc1 | 104
CC(C)c1ccccc1NS(=O)(=O)c1cc(-c2nc(C(C)(C)C)cs2)cs1 | 102
CCN1C(=O)COc2ccc(-c3noc(CNC(=O)c4ccccc4)n3)cc21 | 101
CCn1cc(C(=O)n2ccnc2)c2cc(S(=O)(=O)N(C)C)ccc21 | 104
O=C(CCc1nc(-c2ccc(S(=O)(=O)N3CCCCC3)cc2)no1)N1CCc2ccccc21 | 106
S=c1sc2c(N3CCCC3)ncnc2n1-c1ccccc1 | 104

# Carrying on:
compound | GIV Gai3 FP
COc1ccccc1N1CCN(C(=O)CNC(=O)Cn2cnc3sc4c(c3c2=O)CCCC4)CC1 | 109
CCCCc1nn2c(=O)cc(CN(Cc3ccc(C)cc3)CC(C)C)nc2s1 | 106
CCOCCn1cnc2sc(C(=O)NCC(OCC)OCC)c(C)c2c1=O | 111
CCOC(=O)c1c(NC(=O)CSc2nnc3[nH]c(=O)cc(C)n23)sc2c1CCCC2 | 115
COc1ccc(C2/C(=C(\O)c3ccccc3)C(=O)C(=O)N2c2nc3ccccc3s2)cc1OC (centres undefined) | 101
CC(C)(C)c1cc(CN2CCCCC2)c(O)c(C(C)(C)C)c1 | 110
COCCOC(=O)C1=C(N)OC2=C(C(=O)CC(C)(C)C2)C1c1ccncc1 (centres undefined) | 125
COc1ccc(OC)c(-n2cnc3cc(C(=O)NCc4ccccc4Cl)ccc32)c1 | 105

# Continuation.
compound | GIV Gai3 FP
CCc1nc(-c2csc(S(=O)(=O)N3CCCC(C(=O)NC4CC4)C3)c2)no1 (centres undefined) | 109
O=C(O)c1ccccc1N=CC12c3ccccc3C(c3ccccc31)C1C(=O)N(c3ccccc3[N+](=O)[O-])C(=O)C12 (centres undefined) | 105
Cc1ccccc1NC(=O)c1c(NC(=O)c2ccccc2C)sc2c1CCCCC2 | 113
CCOC(=O)c1c(NC(=O)C2=COCCO2)sc2c1CCN(Cc1ccccc1)C2 | 114
CCOC(=O)C1(C)C=C(Nc2ccc(C(C)=O)cc2)C(=O)N1c1ccc(C(C)=O)cc1 (centres undefined) | 115
Cc1cc(N2CCCC2)nc(Nc2ccc(NC(=O)CCC3CCCC3)cc2)n1 | 104
Cc1ccc(-c2nn3c(=O)c(NC(=O)c4cccc(C)c4)cnc3o2)cc1 | 103
COc1ccc(OC)c(NC(=O)CSc2nc(N3CCc4ccccc4C3)nc3ccccc23)c1 | 107

# More results:
compound | GIV Gai3 FP
COCC(=O)N1CCN(c2ncnc3c2nnn3-c2cccc(OC)c2)CC1 | 109
COc1ccc(C2(O)CN(c3cccc(C)c3)C3=[N+]2CCCC3)cc1 (centres undefined) | 103
COc1cc(C2Nc3ccc4ccccc4c3C3=C2C(=O)CC(C)(C)C3)ccc1O (centres undefined) | 106
CC(=O)C1=NN(c2ccc([N+](=O)[O-])cc2)C2(S1)SC(c1ccc(Br)cc1)(c1ccc(Br)cc1)c1ccccc12 (centres undefined) | 93
O=S(=O)(NCc1nc2cccnc2n1C1CCCC1)c1ccc(Cl)cc1 | 98
CCc1ccc(NC(=O)N2CCN(Cc3nc(-c4ccc(C)cc4)oc3C)CC2)cc1 | 105
CCCS(=O)(=O)c1c(S(=O)(=O)CCC)c2cc(-c3ccncc3)ccn2c1C(=O)N/N=C/c1cccc(OC)c1 | 104
COCCn1c(CCCC(=O)N2CCc3ccccc32)nc2cccnc21 | 112

# Continued.
compound | GIV Gai3 FP
COc1ccc(-c2noc(CCCOc3ccc(Cl)cc3Cl)n2)cc1 | 109
CCOC(=O)C1C(=O)NC(SCC(=O)Nc2cccc(Cl)c2C)=C(C#N)C1c1ccccc1Cl (centres undefined) | 104
O=C1CC(c2ccc(F)c(F)c2)c2cc(Br)c3ccccc3c2N1 (centres undefined) | 111
COc1cccc(C2C(N3C(=O)c4ccccc4C3=O)C(=O)N2c2ccc(C)c(Cl)c2)c1 (centres undefined) | 110
COc1ccc2ccccc2c1C1N(Cc2ccc(Cl)cc2)CCN1Cc1ccc(Cl)cc1 | 102
COc1cc(/C=C2\C(=O)N(c3ccc(S(N)(=O)=O)cc3)N=C2C)ccc1OCc1ccc(Cl)cc1 | 102
COc1cccc(-c2[nH]ncc2CN2CCCC2c2cc(C(C)C)on2)c1 (centres undefined) | 120
CCc1cc(C2CCCN2S(=O)(=O)c2ccc(F)c(Cl)c2)on1 (centres undefined) | 110

# (cont.)
compound | GIV Gai3 FP
CCOC(=O)c1[nH]c(C)c(CCC(=O)N2CCCC(C(=O)N3CCOCC3)C2)c1C (centres undefined) | 102
Cc1ccccc1COCc1nn(C)c2c1CN(C(=O)c1ccc3c(c1)OCO3)CC2 | 102
COc1ccc(C2(c3ccc(OC)cc3)C=Cc3c(c(C(=O)Nc4cc(Cl)c(OC)cc4OC)cc4ccccc34)O2)cc1 | 119
O=C(NCc1ccc(Cl)cc1)c1ccc(SCCN2CCCCC2)nc1 | 104
Cc1ccc(-c2csc3c2ncn2c(=O)n(CC(=O)Nc4c(C)cc(C)cc4C)nc32)cc1 | 98
Cc1ccc(Cl)cc1NC1=NC(=S)N(c2ccc(O)cc2)C12CCCCC2 | 98
Cc1cccc(C(=O)N2CCc3cc(CNS(=O)(=O)c4ccc(F)cc4)ccc32)c1 | 101
CCOC(=O)c1c(NC(=O)CN2C(=O)c3ccccc3C2=O)sc2c1CCN(CC)C2 | 101

# Next part:
compound | GIV Gai3 FP
CCOc1ccc(-c2noc(CSc3nccn3-c3cccc(OC)c3)n2)cc1 | 105
O=c1nc2n(-c3ccc(I)cc3)c3ccccc3cc-2c(=O)[nH]1 | 102
Cc1cccc(-c2noc(-c3ccc(NCCc4ccc(S(N)(=O)=O)cc4)nc3)n2)c1 | 101
CC(=O)OCC1OC(Oc2ccc(C(=O)Cc3ccc(OC(C)C)cc3)c(O)c2)C(OC(C)=O)C(OC(C)=O)C1OC(C)=O (centres undefined) | 104
O=C(Nc1cccc(O)c1)c1nc(-n2cnnc2)ccc1Br | 108
CCOCC(=O)N1CCN(c2cc(=O)n(C)c(=O)n2C)CC1 | 104
Cc1nc(S(=O)(=O)N(C)Cc2ccccc2)c(C#N)c(C)c1Cl | 106
CC(=O)N1c2ccccc2N(Cc2ccccc2)C(=O)CC1c1ccccc1 (centres undefined) | 103

# More results follow.
compound,GIV Gai3 FP
COc1ccc(O)c(C2=Nc3ccccc3N=C(c3ccc(Cl)cc3)C2)c1,108
O=S(=O)(c1cccc2nsnc12)N1CCN(Cc2noc3ccccc23)CC1,102
COc1cc(-c2[nH]nc3c2C2(C(=O)Nc4ccc(C)c(Br)c42)C(C#N)=C(N)O3)cc(OC)c1OC (centres undefined),104
Cc1cccc(C)c1NC(=O)CCc1nc(CSc2nc3ccccc3s2)no1,106
Cc1csc(-c2cc(S(=O)(=O)N(C)Cc3ccco3)c(C)n2C)n1,104
Cc1ccc(S(=O)(=O)N2CSC[C@@H]2C(=O)NCc2csc(C)n2)c(C)c1,100
Cc1cc(C)c(C2=NON3N(C(=O)c4cccc(Cl)c4)c4ccccc4N23)c(C)c1,101
COc1ccc2c(c1)C(C)(C)C1(C=Nc3c(ccc4ncccc34)O1)N2C (centres undefined),110
NC(=O)c1nc(Nc2ccccc2)sc1NC(=O)C1=Cc2ccccc2OC1,109
CCc1ccc(NC(=O)c2ccc(F)c(S(=O)(=O)NCCc3ccccc3)c2)cc1,105

# (listing goes on)
compound,GIV Gai3 FP
COc1ccc(CNC(=O)C2(C)CCCN(S(=O)(=O)c3cc(C)ccc3NC(C)=O)C2)cc1 (centres undefined),113
O=c1cc(CSc2nc(Nc3ccc(F)cc3)c3ccccc3n2)nc2ccc(Cl)cn12,107
O=C1CC(c2ccc(Br)cc2)c2scc(-c3ccc(F)cc3)c2N1 (centres undefined),99
CCOC(=O)C1=NNC2C(=O)N(c3cccc(C)c3)C(=O)C12 (centres undefined),104
CCCS(=O)(=O)c1c(S(=O)(=O)CCC)c2cc(-c3ccncc3)ccn2c1C(=O)c1ccc(Br)cc1,112
O=C(Cn1cnc2nc(N3CCC(C(=O)NC4CC4)CC3)sc2c1=O)NCC1CCCO1 (centres undefined),100
CC1CCCCN1Cc1nc(-c2ccc(N3CCSCC3)nc2)no1 (centres undefined),107
CCOC(=O)C1=C(C(=O)OCC)SC2(S1)C(C(=O)OCC)=C(C(=O)OCC)SC1=C2c2ccc(C)cc2N(C(=O)C(F)(F)F)C1(C)C,112
Cc1cc(N2CCOCC2)nc(N2CCN(C(=O)COc3ccccc3)CC2)n1,105
CCCc1nn2c(=O)cc(CN(C)C3CCCCC3)nc2s1,113

# (more compounds)
compound,GIV Gai3 FP
O=C(CCN1C(=O)c2ccccc2C1=O)N1CCN(Cc2noc(-c3ccccc3)n2)CC1,99
COc1ccc(Br)cc1C1CC(=O)Nc2c1cc(Br)c1ccccc21 (centres undefined),118
Fc1ccc(-c2cn3nc4c(nc3n2)[nH]c2cc(OC(F)(F)F)ccc24)cc1,138
CCCS(=O)(=O)c1c(S(=O)(=O)CCC)c2ccc(C(N)=O)cn2c1C(=O)c1ccc(C)cc1C,111
COCCNC(=O)N1CCCn2nc(-c3cccnc3)cc2C1,107
COc1ccc(C2(N3CCOCC3)Oc3ccccc3C(C#Cc3ccccc3)=C2C)cc1 (centres undefined),117

# High-throughput results deposited in PubChem BioAssay by ICCB-Longwood Screening Facility, Harvard Medical School.
